Assay outcomes: PubChem, Sanford-Burnham Center for Chemical Genomics
697 NFkB inh – inhibitors of PMA/ionomycin-induced NF-kB reporter, 697 cells, primary screen, B-cell NF-kB inhibitor project, cell-based, luminescence, uHTS | inhibition, % at 4 µM | 697 B-cell NF-kB luciferase reporter, 16 h | 330,000 compounds, 0.33% hits; in the data active means inhibition above about 35%
Jurkat NFkB inh – inhibitors of induced NF-kB luciferase reporter, primary screen, TCR NF-kB activation inhibitor project, cell-based, luminescence, uHTS; Jurkat, PMA/ionomycin-induced NF-kB luciferase reporter; inhibition, % at 4 µM; 330,000 compounds, 0.53% hits; in the data active means inhibition above about 50%
EBI2 antag – EBI2 receptor antagonists, beta-arrestin recruitment, primary screen, cell-based, luminescence, 7a,25-OHC stimulation, uHTS; G-protein coupled receptor 183 (Homo sapiens), P32249; 7a,25-OHC stimulated; inhibition, % at 5 µM; 360,000 compounds, 0.81% hits; AID 651636, 2012; in the data active means inhibition above about 38%;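 further: enzyme fragment complementation signal reports receptor beta-arrestin coupling in cells; 0% = agonist plus DMSO wells and 100% = wells without agonist; some results beyond the cut were filed as inactive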
Target sequence (P32249 whole entry, looked up, the tested form may be a part): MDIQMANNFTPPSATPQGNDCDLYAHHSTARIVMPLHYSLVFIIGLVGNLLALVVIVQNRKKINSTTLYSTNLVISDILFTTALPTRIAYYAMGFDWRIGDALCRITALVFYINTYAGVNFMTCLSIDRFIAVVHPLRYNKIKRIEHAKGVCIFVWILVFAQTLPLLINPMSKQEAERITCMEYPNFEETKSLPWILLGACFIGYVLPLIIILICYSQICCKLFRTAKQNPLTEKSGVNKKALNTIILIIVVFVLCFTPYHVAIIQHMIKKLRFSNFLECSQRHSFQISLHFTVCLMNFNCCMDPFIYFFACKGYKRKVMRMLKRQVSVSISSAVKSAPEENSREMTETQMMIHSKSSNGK
Gli-Sufu antag – Gli-Sufu pathway antagonists, primary screen, luciferase luminescence, Sufu-KO-LIGHT cells, uHTS | Sufu-KO-LIGHT fibroblasts, Gli luciferase reporter luminescence | inhibition, % at 5 µM | 340,000 compounds, 0.74% hits | AID 588413, 2011;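 active means inhibition above about 55%, limit read from the data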;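 further: 0% = DMSO-treated cells and 100% = wells with medium but no cells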
UBC13 polyUb – UBC13 polyubiquitin chain formation inhibitors, primary screen, biochemical, TR-FRET, uHTS | Ubiquitin-conjugating enzyme E2 N (Homo sapiens), P61088 | inhibition, % at 20 µM | 330,000 compounds, 0.47% hits | AID 485273, 2010; in the data active means inhibition above about 45%, passing the limit was not always enough
Numbers without * were called inactive. The list is partial; count on the stated rates, not on these rows.

item	smiles	697 NFkB inh	Jurkat NFkB inh	EBI2 antag	Gli-Sufu antag	UBC13 polyUb
1	O=c1c2c3c(sc2n2cnnc2n1Cc1ccccc1)CN(Cc1ccccc1)CC3	21.9	-9.8	12.8	20.0	1.9
2	COc1ccccc1NC(=O)c1nc(S(=O)(=O)Cc2ccccc2)ncc1Cl	-150.9	42.2	73.2*	4.6	6.7
3	O=C1NC[C@@H](c2ccccc2)OC(=O)[C@H](Cc2ccc(F)cc2)C/C=C\C[C@@H]1CC(=O)N(CCO)Cc1ccccc1	-13.5	-8.6	39.8	0.5	-0.3
4	COc1ccc(CN2C(=O)C(CC(C)C)Nc3ncnc(N4CCN(c5ccccn5)CC4)c32)cc1 (configuration not stated)	4.9	14.0	3.0	-7.5	-33.1
5	CCC1Nc2ncnc(N3CCN(c4ccccc4)CC3)c2N(Cc2ccc(Br)cc2)C1=O (configuration not stated)	0.4	13.0	78.3*	8.5	-9.7
6	O=C(CSc1nc2c([nH]c3ccccc32)c(=O)n1-c1ccccc1F)NCC1CCCO1 (configuration not stated)	20.3	1.0	43.5*	12.7	-0.2
7	O=C(NNC(=O)c1ccccc1OCc1ccccc1Cl)c1csc(N2CCOCC2)n1	22.7	8.5	6.7	3.9	-14.4
8	CC(/C=C/c1ccc2c(c1)OCO2)=N\NC(=O)c1cccc([N+](=O)[O-])c1	-9.7	1.4	-4.0	-8.6	-12.9
9	CCC1Nc2ncnc(N3CCN(c4ccccc4)CC3)c2N(Cc2ccccc2)C1=O (configuration not stated)	8.1	-10.9	46.0*	2.8	2.4
10	CC1Nc2ncnc(N3CCN(c4ccccc4)CC3)c2N(Cc2ccc(Br)cc2)C1=O (configuration not stated)	1.2	2.5	67.2*	12.5	4.4
11	COc1ccc(-c2csc3ncnc(N4CCN(c5cccc(C)c5C)CC4)c23)cc1	-4.7	10.5	48.8*	12.7	-0.2
12	O=C1CCCC/C=C\C[C@H](CC(=O)N(CCO)Cc2ccccc2)C(=O)NC[C@H](c2ccccc2)O1	-8.6	-13.0	-6.5	-4.1	-9.9
13	O=C(N/N=C(\c1ccccc1)c1ccccn1)c1ccccc1Cl	-16.2	45.1	-0.6	53.2	2.8

Entries above that contain a halogen:
item	smiles	697 NFkB inh	Jurkat NFkB inh	EBI2 antag	Gli-Sufu antag	UBC13 polyUb
2	COc1ccccc1NC(=O)c1nc(S(=O)(=O)Cc2ccccc2)ncc1Cl	-150.9	42.2	73.2*	4.6	6.7
3	O=C1NC[C@@H](c2ccccc2)OC(=O)[C@H](Cc2ccc(F)cc2)C/C=C\C[C@@H]1CC(=O)N(CCO)Cc1ccccc1	-13.5	-8.6	39.8	0.5	-0.3
5	CCC1Nc2ncnc(N3CCN(c4ccccc4)CC3)c2N(Cc2ccc(Br)cc2)C1=O (configuration not stated)	0.4	13.0	78.3*	8.5	-9.7
6	O=C(CSc1nc2c([nH]c3ccccc32)c(=O)n1-c1ccccc1F)NCC1CCCO1 (configuration not stated)	20.3	1.0	43.5*	12.7	-0.2
7	O=C(NNC(=O)c1ccccc1OCc1ccccc1Cl)c1csc(N2CCOCC2)n1	22.7	8.5	6.7	3.9	-14.4
10	CC1Nc2ncnc(N3CCN(c4ccccc4)CC3)c2N(Cc2ccc(Br)cc2)C1=O (configuration not stated)	1.2	2.5	67.2*	12.5	4.4
13	O=C(N/N=C(\c1ccccc1)c1ccccn1)c1ccccc1Cl	-16.2	45.1	-0.6	53.2	2.8
